# Screens (PubChem)
# Kir21 inh = Kir2.1 (mouse) channel inhibition; P35561; AID 1672; HEK293-Kir2.1, FluxOR thallium flux fluorescence; stronger effect = lower value; hit rate 0.85% among 310,000; B-score at 10 µM;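 active means fluorescence ratio B-score at or below minus 3 SD of library scores, with starting-brightness B-score within 2 SD, cut at about -4.2 in these data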;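 further: channel flux triggered by added potassium and thallium sulfate stimulus; B-score of peak minus minimum fluorescence over baseline after thallium stimulus; more negative B-score means stronger Kir2.1 block with less thallium influx; some compounds called inactive have numbers as strong as hits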
# Target sequence (P35561 whole entry, looked up): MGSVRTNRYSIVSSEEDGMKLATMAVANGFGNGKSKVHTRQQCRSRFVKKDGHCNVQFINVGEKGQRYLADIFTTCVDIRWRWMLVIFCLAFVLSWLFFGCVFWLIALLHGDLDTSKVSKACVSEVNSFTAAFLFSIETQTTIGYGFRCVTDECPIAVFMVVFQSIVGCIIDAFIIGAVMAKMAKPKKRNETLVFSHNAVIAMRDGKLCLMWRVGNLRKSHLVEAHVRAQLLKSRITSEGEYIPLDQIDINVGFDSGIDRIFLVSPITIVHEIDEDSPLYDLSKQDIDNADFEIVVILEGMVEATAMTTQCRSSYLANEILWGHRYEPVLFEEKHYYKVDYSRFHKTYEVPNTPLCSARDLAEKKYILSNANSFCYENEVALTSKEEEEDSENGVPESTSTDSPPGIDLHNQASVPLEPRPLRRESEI
# An asterisk follows results filed as active. The list is partial, and most or all hits are left out here.
compound	Kir21 inh
COc1cc(C2C(C#N)=C(N)Oc3c2oc(CO)cc3=O)ccc1OC(C)C (stereo unspecified)	-0.22
CC(C)=CCN1CCN(Cc2nc(-c3ccccc3)cs2)CC1CCO (stereo unspecified)	-0.15
COc1ccc(OCC(=O)Sc2ccc(C)cc2)cc1	-0.48
CC1CCN(c2nncc3ccccc23)CC1	-0.46
O=C1CC(=O)CC(c2ccccc2)C1	0.9
CCc1ccc(NS(=O)(=O)c2ccc3c(c2)oc(=O)n3C)cc1	1.4
COc1ccc(CCNC(=O)C2CCN(S(=O)(=O)c3ccc(-n4cnnn4)cc3)CC2)cc1OC	-0.05
COC(=O)c1cc(NS(=O)(=O)c2ccc3c(c2)c(=O)n(C)c(=O)n3C)cc(C(=O)OC)c1	0.3
Cn1cccc1C(=O)/C(C#N)=C/c1ccc(F)cc1	-1.3
Cc1ccc(N2CSC3=C(C#N)C(c4cccs4)CC(=O)N3C2)cc1 (stereo unspecified)	0.54
CCOc1ccc2[nH]cc(S(=O)(=O)c3ccc(C)cc3)c(=O)c2c1	-1.7
Cc1nc(NC(=O)CSc2nnc(-c3ccccc3)c(-c3ccccc3)n2)c(Cl)cc1Cl	-1.7
COc1ccc2c(C(=O)CN3CCN(CCO)CC3)c[nH]c2c1	2.3
CCOc1ccc(CN(C)CC(=O)NNC(=O)c2ccc(Cl)cc2)cc1OC	0.01
COc1ccc(C(=O)N(C)CC(=O)Nc2cccc(F)c2)cc1S(=O)(=O)NC1CCCC1	-0.46
Cc1ccc(S(=O)(=O)NC(=O)Nc2cc(C)no2)cc1	0.57
C#CC(CC)(CC)NC(=O)c1c(C)noc1C	1.1
O=C(CCC1CCCCC1)NCCN1CCOCC1	0.54
COc1ccccc1-c1nnc(SCC(=O)NC2CCCCC2)o1	-0.46
NC(=O)NOCc1c(Cl)cccc1Cl	-0.09

# (further entries)
compound	Kir21 inh
CC(NC(=O)COC(=O)c1ccc(N(C)C)cc1)c1ccccc1 (stereo unspecified)	-0.72
COc1cc2c(cc1OC)C(C)N(C(C)=O)CC2 (stereo unspecified)	-0.39
COc1ccc(C(C)NC(=O)CCc2ccccc2)cc1 (stereo unspecified)	-0.37
Cc1ccc(N2CC(C(=O)N3CCCCCC3)CC2=O)cc1 (stereo unspecified)	-0.23
CCn1c(SCC(=O)Nc2ccccc2N2CCCCC2)nc2c1c(=O)n(C)c(=O)n2C	-2.8
CCCCOc1cccc(C(=O)N(Cc2cccs2)C2CCS(=O)(=O)C2)c1 (stereo unspecified)	-1.2
CCc1c(C)nc(N2CCN(Cc3ccc4c(c3)OCO4)CC2)[nH]c1=O	-0.67
Cc1ccc2cn[nH]c2c1N	-0.11
CCCC(=O)C1=C(O)C(C(=O)OC)C(C)(C)CC1=Nc1ccc(C)cc1 (stereo unspecified)	0.79
c1ccc(CSc2ccc(-c3ccc4c(c3)OCO4)nn2)cc1	2.4
O=C(/C=C/c1ccc(Cl)cc1Cl)n1cccn1	-1.5
CCCCNC(=S)N1CCN(C)CC1	1.3
COc1ccc(NC(=O)c2cccc(N3C(=O)C4C5C=CC(C5)C4C3=O)c2)c(OC)c1 (stereo unspecified)	-0.06
CSc1cccc(NS(=O)(=O)c2ccc(-c3coc(C)n3)cc2)c1	-1.2
COc1ccc(-c2nc(N3CCN(C)CC3)sc2-c2ccc(OC)cc2)cc1	-1.6
CC1=C(C#N)C(NC(=O)C2CCCCC2)(C(F)(F)F)C(=O)N1 (stereo unspecified)	0.48
CCn1c(=O)cc(SCC(=O)Nc2cc(OC)c(OC)c(OC)c2)c2ccccc21	1.3
Cc1ccc(N2NC(=O)/C(=C/c3ccc(-c4ccc(Cl)c(C(=O)O)c4)o3)C2=O)cc1	0.07
O=C(N/C(=C\c1ccco1)C(=O)N1CCOCC1)c1ccccc1Cl	1.2
COc1ccc(NC(=O)CSc2nc(C(C)C)nc3c2c(=O)n(C)c(=O)n3C)c(OC)c1	-0.41

# Two entries from above, with each value named:
CC1=C(C#N)C(NC(=O)C2CCCCC2)(C(F)(F)F)C(=O)N1 (stereo unspecified)
- Kir21 inh = 0.48

CCn1c(=O)cc(SCC(=O)Nc2cc(OC)c(OC)c(OC)c2)c2ccccc21
- Kir21 inh = 1.3

# (cont.)
compound	Kir21 inh
O=C(NCc1ccco1)c1n[nH]c(=O)c2ccccc12	-0.28
COc1ccc(CNC(=O)c2c(C)nc3ccccn23)cc1	-0.06
CCCCn1c(SCC(=O)/C(C#N)=C(\C)N)nc2ccccc2c1=O	0.68
CCCC(=O)N1CCN(c2nc3ccc(Cl)cc3s2)CC1	-0.87
Cc1c(/C=N/NC(=O)c2cc(Br)ccc2O)c(=O)n(C)c(=O)n1C	-1.3
COc1ccccc1C(=O)Nc1nsc(-c2ccccc2)n1	0.45
CCOC(=O)Cc1csc(NC(=O)c2sc3nc4ccc(CC)cc4cc3c2N)n1	-0.05
O=C(NC(c1ccccc1)c1ccccc1)c1ccc(=O)[nH]n1	0.93
COc1cccc(CNc2nc3nc(C)c(Cl)c(=O)n3[nH]2)c1	-1.9
COC(=O)c1ccc(CSc2nc3c(c(=O)n2-c2ccc(F)cc2)SCC3)o1	-1.3
O=[N+]([O-])c1ccc(Cl)cc1N1CCCCC1	0.83
O=C(O)c1ccc(NS(=O)(=O)c2ccc3nnn(O)c3c2)cc1	-0.65
CCOc1cc(C)c(Cl)cc1S(=O)(=O)N(CC)CC	-3.7
Cn1c(=O)c2c(nc(NCc3ccc4c(c3)OCO4)n2Cc2ccccc2Cl)n(C)c1=O	-2.1
CN(CC(=O)Nc1ccc(F)c(F)c1F)c1cnccn1	0.24
O=C(Cn1c(=O)n(Cc2ccco2)c(=O)c2cc(Cl)ccc21)NCC1CCCO1 (stereo unspecified)	0.01
O=C(CSc1ccc2ccccc2c1)Nc1nc2ccccc2[nH]1	-1.1
O=C(CN1C(=O)C2CC=CCC2C1=O)OCC(=O)c1ccc(Cl)c([N+](=O)[O-])c1 (stereo unspecified)	0.25
CC(=O)NC1=NN(C(C)=O)C(c2cccs2)S1 (stereo unspecified)	0.01
O=C1CCCN1c1nccs1	-0.7

# More records follow:
compound	Kir21 inh
CCN(CC(=O)NC1CCCC1)S(=O)(=O)c1ccc(Br)cc1	0.44
CCCC(=O)Nc1nnc(SCC(=O)Nc2ccc3c(c2)OCCO3)s1	0.26
Clc1ccc(Nc2nc3ccccc3n3nnnc23)cc1	-1.9
CC(=O)Nc1ccc(-c2cc(-c3ccccc3)nc(-c3ccccc3)n2)cc1	0.35
S=c1[nH]c(-c2ccccc2)cn1-c1ccccc1	-0.04
O=C(Nc1ccno1)Nc1ccc(Cl)cc1Cl	1.7
CC(C)[C@H](CN(N=O)[C@@H](Cc1ccccc1)CN(C)N=O)N(CCc1ccccc1)N=O	-0.11
COc1ccc(C2c3cc(OC)c(OC)cc3CCN2C(=O)c2ccccc2Br)cc1OC (stereo unspecified)	0.09
CCNC(=O)NC(=O)C(C)Sc1nc2cc(C(=O)OC)ccc2c(=O)n1-c1ccccc1 (stereo unspecified)	1.2
CC1=NN(C(N)=S)C(=O)C1N=Nc1ccccc1Cl (stereo unspecified)	0.34
COc1ccc(N2C(=O)CC(NCc3ccc(F)cc3)C2=O)cc1 (stereo unspecified)	-0.2
CCCCOP(=O)(OCCCC)C(O)c1ccc(N(C)C)cc1 (stereo unspecified)	-0.2
COc1cc(C(=O)NCC(=O)OCn2nnc3ccccc3c2=O)cc(OC)c1OC	2
C#Cc1cccc(-n2nnc(C(=O)OC)c2-c2ccccc2)c1	0.47
Cc1cc(C)nc(NS(=O)(=O)c2ccc(NC(=O)c3cc(-c4ccccc4)nc4ccccc34)cc2)n1	1.6
CC(C)=CCCC(C)CN1CCC(N2CCC(C(=O)NC(C)C)CC2)CC1 (stereo unspecified)	1.4
CC(C)(C)OC(=O)C(C)(C)Sc1nnc(N)s1	-2.1
COCCCN(C(=S)NC(=O)c1ccc(C(C)(C)C)cc1)c1c(N)n(Cc2ccccc2)c(=O)[nH]c1=O	-1.8
CCn1ccc2cc(OC)ccc2c1=S	-0.33
CCOc1ccc(C2CC(c3ccccc3)Nc3nc(N)nn32)cc1 (stereo unspecified)	-0.34

# Structures from the list above that contain bromine:
compound	Kir21 inh
Cc1c(/C=N/NC(=O)c2cc(Br)ccc2O)c(=O)n(C)c(=O)n1C	-1.3
CCN(CC(=O)NC1CCCC1)S(=O)(=O)c1ccc(Br)cc1	0.44
COc1ccc(C2c3cc(OC)c(OC)cc3CCN2C(=O)c2ccccc2Br)cc1OC (stereo unspecified)	0.09

# (cont.)
compound	Kir21 inh
CCCn1nnc(NC(=O)c2ccc(Br)cc2)n1	-0.21
COc1ccc(-c2nc3nc(C)c(Cc4ccccc4)c(=O)n3[nH]2)cc1	-0.27
COc1ccc2oc(C(=O)Nc3ccccc3N3CCOCC3)c(C)c2c1	-0.07
Cc1ccc(OCC(=O)Nc2ccc(NC(=O)c3ccccc3)c(C)c2)cc1	-1.7
O=C(c1cnc(N2CCN(c3ncccn3)CC2)c2ccccc12)N1CCN(c2ncccn2)CC1	1.4
C/C(=N\Nc1cccc2cccnc12)c1ccccn1	0.12
CCOC(=O)c1ccc(NC(=O)C(=O)NCCc2ccc(OC)cc2)cc1	0.5
CC1(c2nnc(-c3ccncc3)o2)CC(c2ccc(Cl)cc2)=NO1 (stereo unspecified)	-0.06
COc1cc2c(cc1OC)C(C)N(C(=O)Nc1ccccc1)CC2 (stereo unspecified)	-0.95
COc1ccc(-c2c(=O)n(OC)c3ccccc3[n+]2[O-])cc1OC	2.3
COc1cccc(N2CCN(C(=O)Nc3ccc4c(c3)NC(=O)CO4)CC2)c1	0.91
COc1ccc(OCCNS(=O)(=O)c2ccccc2)cc1	-0.41
COc1ccccc1N(O)C1CC(=O)N(c2ccc(Br)cc2)C1=O (stereo unspecified)	0.47
NC(=O)/C(=C\c1ccncc1)c1cccc2ccccc12	1.4
CC(=O)Nc1ccc(-n2c(C)ccc2C)cc1	-0.03
CC1CCCCN1S(=O)(=O)c1ccc2c(c1)C(C)(C)C(=O)N2C (stereo unspecified)	-0.37
Cc1cccc(NC(=O)C2C(C(=O)O)C3C=CC2C32CC2)c1C (stereo unspecified)	0.04
O=C1Nc2ccccc2OC1CC(=O)N1CCCC1 (stereo unspecified)	0.08
COc1ccc(NC(=S)N2CCC(c3ccccc3)C2)cc1 (stereo unspecified)	1.2
Cc1ccc(OCC(=O)Nc2ccc(N3CCN(C(=O)c4ccc(C)cc4)CC3)cc2)cc1	-0.06

# New compounds follow.
compound	Kir21 inh
CCC(C)[C@H](NC(=O)[C@H](Cc1ccccc1)n1c(=O)[nH]c2ccccc2c1=O)C(=O)N1CCC[C@@H]1C(=O)O (stereo partly specified)	-1.6
NC(=O)C1(N2CCCCC2)CCN(CC(=O)Nc2ccc(Oc3ccccc3)cc2)CC1	-0.24
CN(Cc1ccccc1)C(=O)c1nc2ccccn2c1CNCCCOc1cccnc1	0.43
Cc1oc(-c2cccc(Cl)c2)nc1CS(=O)(=O)CC(=O)NCCCN1CCOCC1	0.91
CC1CCN(CC(=O)Nc2nn(-c3ccccc3)nc2C(N)=O)CC1	-0.22
CCC(C)N1C(=S)SC(C)(C)C1N(O)C(=O)NC1CCCCC1 (stereo unspecified)	0.68
O=C(Nc1ccc(-c2csnn2)cc1)C(Cl)(Cl)Cl	1.9
O=C(Nc1nc(-c2ccccc2)cs1)c1cccc([N+](=O)[O-])c1C(=O)O	-0.24
CCC(Sc1nncn1C)C(=O)Nc1nnc(-c2ccccc2Cl)s1 (stereo unspecified)	0.28
Cc1ccc(C(=O)COC(=O)CNC(=O)c2ccc(N3C(=O)c4ccccc4C3=O)cc2)cc1C	-1.6
Cc1ccc(-c2cc(C(=O)NC3CCCC3)no2)cc1	-0.14
CC1CN(Cc2ccccc2)c2nc3c(c(=O)n(CC(N)=O)c(=O)n3C)n2C1 (stereo unspecified)	-0.49
O=C(CN1C(=O)C2C3CCC(C3)C2C1=O)OCC(=O)c1ccc(Br)cc1 (stereo unspecified)	-1
CCOC(=O)c1cnc2nc(C)nn2c1N	-0.03
CCC(=O)N1CCC2(CC1)Oc1ccc(Cl)cc1C(=O)C21CC(c2ccc(Cl)cc2)=NO1 (stereo unspecified)	0.17
O=C(c1ccc2ccccc2c1)N1CCN(c2ccccn2)CC1	1.2
CCN(CC)S(=O)(=O)c1cc(NC(=O)Cn2cnc3ccccc3c2=O)ccc1C	-0.07
CC1NC(=O)NC1CCCCCC(=O)NCCc1ccccc1 (stereo unspecified)	0.89
O=C(c1cccc(C(=O)N2CCc3ccccc32)n1)N1CCc2ccccc21	-0.03
S=c1[nH]nc(COc2ccccc2)n1/N=C/c1cccs1	-0.05

# Other results
compound	Kir21 inh
CCN(CC)C(=O)c1c([N+](=O)[O-])c(C(C)(C)C)nn1C	1.4
CS(=O)(=O)N(CC(=O)N1CCCCC1)Cc1ccccc1	0.31
CC(C)CN(C(=O)CCC(=O)OC(C)C(=O)Nc1cccc(C#N)c1)c1c(N)n(CC(C)C)c(=O)[nH]c1=O (stereo unspecified)	-0.02
C/C=C(\C)CN1CCCC(N(C)CCc2ccc(OC)c(OC)c2)C1 (stereo unspecified)	1.3
Cc1ccc(S(=O)(=O)N(C)c2ccc(C(=O)NCC(c3cccs3)N3CCOCC3)cc2)cc1 (stereo unspecified)	-0.06
CCN(CC)S(=O)(=O)c1ccc2c(c1)nc(CCC(=O)Nc1ccc(N3CCOCC3)cc1)n2C	0.02
COc1ccc(-c2cc(C(=O)Nc3ccccc3SC)no2)cc1	0.08

# Quoted from the listing:
# CCN(CC)S(=O)(=O)c1ccc2c(c1)nc(CCC(=O)Nc1ccc(N3CCOCC3)cc1)n2C in Kir21 inh = 0.02
# CS(=O)(=O)N(CC(=O)N1CCCCC1)Cc1ccccc1 in Kir21 inh = 0.31
